# Source: PubChem
# UCH37 DUB inh: human UCH37 deubiquitinating enzyme inhibition | Q9Y5K5 | purified proteasome/UCH37, Ub-AMC cleavage fluorescence | inhibition, % (concentration not given with the values) | 330,000 tested, 0.33% active;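 active = mean of two replicates above 20%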;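 note: 0% = compound-free wells with enzyme and 100% = wells lacking proteasome; stock transfer was 100 nL into about 20 µL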
# Target sequence (Q9Y5K5 whole entry, looked up): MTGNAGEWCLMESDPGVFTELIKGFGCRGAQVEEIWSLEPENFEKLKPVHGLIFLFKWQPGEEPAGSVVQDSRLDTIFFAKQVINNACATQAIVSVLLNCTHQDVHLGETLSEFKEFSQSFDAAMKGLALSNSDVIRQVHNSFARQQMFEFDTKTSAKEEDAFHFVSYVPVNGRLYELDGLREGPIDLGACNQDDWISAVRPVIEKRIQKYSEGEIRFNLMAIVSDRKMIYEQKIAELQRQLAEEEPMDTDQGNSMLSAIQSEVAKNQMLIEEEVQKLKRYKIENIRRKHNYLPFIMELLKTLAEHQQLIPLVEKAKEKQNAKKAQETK
#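 Material: human UCH37 enzyme supplied as purified proteasome complex / Amount: 0.15 nM proteasome as dispensed / Buffer or medium: pH 7.4 Tris-HCl (50 mM) with ovalbumin, ATP-MgCl2, DTT / Times: preincubation 30 min, reaction 25 min, room temperature / Technique: AMC fluorescence from Ub-AMC cleavage, excitation 355 nm, emission 460 nm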
# A1 inh: inhibitors of the anti-apoptotic protein A1, read as caspase activation. caspase activation, % (concentration not given with the values). MEF A1-2A-BIM cells, Caspase-Glo 3/7 luminescence, 3 h; percent of clofoctol response, vehicle zero. 330,000 tested, 0.066% active. AID 2462;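 active = over half of replicate activation scores above 10%, or exactly half above 10 with the replicate mean above 10; inconclusive = replicate mean below 10 yet half the replicates above 10; inactive = over half of replicates below 10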;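 note: wells of about 30 µL received 50 nL stock; many hits fall short of the cut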
# Calb FLC: affects C. albicans growth with fluconazole. growth inhibition, % (no concentration beside the values). C. albicans CaCi-2 (fluconazole-resistant clinical isolate) + fluconazole, Alamar Blue growth, 48 h. AID 1979. 300,000 tested, 0.57% active;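 active = most replicates above 75%; inconclusive = exactly half above 75%; inactive = most below 75%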;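 note: all wells also contain fluconazole at 8 µg/ml as a sub-toxic cotreatment; 0% = median of DMSO wells and 100% = median of geldanamycin control wells; wells of about 8 µL received 7.5 nL stock; the first replicate is given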
# T cruzi repl: blocks replication of Trypanosoma cruzi; T. cruzi beta-gal in NIH3T3, luminescence, 90 h; inhibition, % (no concentration beside the values); 300,000 tested, 1.4% active; AID 1885;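 active = mean inhibition across valid replicates above about 55%, limit read from the data; inconclusive = mean below that limit but half or more replicates reach it; inactive = mean below it, under half of replicates reach it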;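 note: signal also drops with host cell toxicity which is not excluded here; 0% = plate median of DMSO wells and 100% = zero luminescence signal; higher percent means less beta-gal luminescence so fewer parasites; stock transfer was 50 nL into about 50 µL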
# RanGTP-Impb inh: inhibitors of RanGTP-importin-beta interaction, primary screen, biochemical, FRET, CFP-Ran, YFP-importin-beta, homogeneous | cell-free CFP-Ran/YFP-importin-beta FRET ratio | 300,000 tested, 1.1% active | AID 2216 | inhibition, % (no concentration beside the values);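 active = most replicates above 15%; inconclusive = exactly half above 15%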;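 note: 0% = DMSO wells and 100% = Ran loaded with GDP instead of GTP; wells of about 40 µL received 100 nL stock; the first replicate is given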
# Beta apoptosis: beta cell apoptosis inhibition; INS-1E cytokine-induced death, ATP luminescence, 48 h; percent of positive-control rescue, neutral wells zero; protection from apoptosis, % (concentration not given with the values); 300,000 tested, 0.8% active;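 active = all replicates at 75% or more, or half of them and the mean; inconclusive = half reach 75% but not the mean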;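 note: 0% = cytokine-treated negative control wells and 100% = positive control rescue; higher means more ATP so stronger rescue from cytokine killing; wells of about 40 µL received 100 nL stock; the first replicate is given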
# LANA-H2A inh: blocks KSHV LANA binding to histone H2A/H2B; Q9QR71; cell-free LANA-H2A/H2B peptide, fluorescence polarization; inhibition, % (no concentration beside the values); 320,000 tested, 0.6% active; in the data active = inhibition mostly above about 10%, no sharp cut-off; inactive = mostly below about 6.7%;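 note: stock transfer was 7.5 nL into about 10 µL; 0% = median of vehicle wells and 100% = median of positive control wells; one replicate is shown; the record names a cut of 25% in any replicate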
# B2AR ag: activates human beta-2 adrenergic receptor causing internalization; 340,000 tested, 0.43% active; P07550; Am2.2-beta2AR cells, FAP receptor internalization, flow cytometry; reference of the scale not given here; response, % (concentration not given with the values);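 active = response above a set limit, near 3 SD of response in nonfluorescent compounds, cut at about 42% in these data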;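 note: stock transfer was 100 nL into about 11 µL; a reference agonist was the positive control; negative values mostly stem from fluorescent compounds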
# Target sequence (P07550 whole entry, looked up): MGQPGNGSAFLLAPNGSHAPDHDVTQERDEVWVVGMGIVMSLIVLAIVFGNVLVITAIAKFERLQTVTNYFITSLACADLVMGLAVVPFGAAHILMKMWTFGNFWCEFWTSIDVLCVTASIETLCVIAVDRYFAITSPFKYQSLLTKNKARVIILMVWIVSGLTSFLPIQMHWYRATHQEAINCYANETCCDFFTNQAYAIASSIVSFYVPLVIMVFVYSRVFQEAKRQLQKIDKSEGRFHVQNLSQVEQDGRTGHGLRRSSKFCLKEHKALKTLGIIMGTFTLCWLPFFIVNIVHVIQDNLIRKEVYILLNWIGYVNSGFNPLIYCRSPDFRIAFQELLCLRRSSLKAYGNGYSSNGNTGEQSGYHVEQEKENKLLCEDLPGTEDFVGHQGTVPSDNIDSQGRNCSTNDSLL
# The depositor's hits bear a star; ? = inconclusive; nt = not tested or not shown.
SMILES,UCH37 DUB inh,A1 inh,Calb FLC,T cruzi repl,RanGTP-Impb inh,Beta apoptosis,LANA-H2A inh,B2AR ag
O=C(O)CC1c2ccccc2CCN1S(=O)(=O)c1ccc(F)cc1 (stereo unspecified),6.8,-0.1,3,-8,3.6,nt,-3.4,-1
CN1CCCC(OC(=O)CCCC(=O)OC2CCCN(C)C2)C1 (stereo unspecified),-0.7,1.2,nt,-17,3.2,2,4.8,3
CCCNC(=O)NC(=O)CN1C(=O)NC(C)(c2ccc(C)cc2)C1=O (stereo unspecified),3.0,0.2,3,-12,-3.8,-2,3.1,-3
Cc1ccc(C)c2c1N(Cc1ccccc1)C(=O)C21OCCO1,1.3,0.9,2,-9,3.1,5,-5.3,-3
COC(=O)c1c(C)[nH]c(/C=N/Nc2ccccc2)c1C,nt,-0.8,-38,6,2.0,-7,1.9,3
CCOc1ccccc1NC(=O)CSc1cn[nH]n1,1.5,-0.3,-4,-10,-0.6,-7,nt,2
COc1ccccc1S(=O)(=O)Cc1ccc(C(=O)NCc2cccs2)o1,1.3,-0.3,?,2,-4.8,-12,2.4,3
CC(C)(C)c1nnc(NC(=O)c2cc(-c3ccccc3)nc3ccccc23)s1,1.1,0.5,-1,-9,-0.6,6,-3.8,-2
CCCCc1c(O)nc(SCCN(C)C)n(-c2ccccc2)c1=O,2.3,0.5,-7,2,0.8,-8,6.0,3
CC(O)c1n(C)c(Cl)c[n+]1C (stereo unspecified),5.7,-0.2,1,4,-2.8,2,0.2,-4
CC(C)(C)[C@@H]1COC(=O)[C@H](Cc2ccc(F)cc2)CC/C=C\C[C@H](CC(=O)N(CCO)Cc2ccccc2)C(=O)N1,0.5,0.3,nt,nt,nt,4,3.7,22
CN(CCOc1ccccc1)C(=S)Nc1ccc(OC(F)F)cc1,4.2,0.1,-5,-11,3.9,-12,-9.0,-5
CCOC(=O)c1cc(NC(=O)C2CCCO2)cc(C(=O)OCC)c1 (stereo unspecified),1.0,0.5,6,9,7.0,-3,3.3,-7
COc1ccc(S(=O)(=O)N2CCOCC2)cc1NC(=O)Cc1ccccc1Cl,-0.4,-0.2,-6,8,8.5,-4,0.1,6
C#Cc1ccc([C@@H]2C=C(C(=O)OCC=C)O[C@H](OCC)[C@H]2CCCO)cc1,0.6,0.1,1,6,-2.2,2,-1.6,4
Cc1cccc(OCC(=O)N2CCN(C(=O)c3ccco3)CC2)c1,3.4,-1.0,-5,-10,?,-7,0.9,4
Nc1ccc(S(=O)(=O)Nc2ccc(S(N)(=O)=O)cc2)cc1,-1.0,0.4,-8,-8,1.5,-3,5.5,7
CN(C)S(=O)(=O)c1cc(NC(=O)COC(=O)C2CSC3(C)CCC(=O)N23)ccc1Cl (stereo unspecified),1.2,-0.1,5,2,-2.0,0,5.7,0
CCOC(=O)c1[nH]cnc1C(=O)N1CCN(C(=O)OC(C)(C)C)CC1,1.4,-0.6,nt,nt,nt,2,1.8,4
C=C/C(C)=C/C[C@H]1C(=C)CCC2[C@](C)(C(=O)O)CCC[C@@]21C (stereo partly specified),2.7,0.5,nt,nt,nt,-2,0.5,6
O=C(CSc1n[nH]c(=O)[nH]c1=O)Nc1c(Cl)cc(Cl)cc1Cl,3.1,0.6,nt,nt,nt,-3,3.7,-3
Cc1c(S(=O)(=O)N2CCC(C)CC2)c(=O)n(C)c(=O)n1C,3.1,0.4,-2,-6,4.7,nt,-4.2,-5
CCOc1ccc(OCCCC(=O)NNC(=O)c2ccncc2)cc1,2.5,0.2,-6,-6,-4.1,nt,0.5,-6
COCCN(C(=S)Nc1ccc(C)c(C)c1)C(C)c1ccco1 (stereo unspecified),2.4,0.1,-6,-5,5.4,-9,2.4,0
COc1cc(OC)nc(Oc2ccccc2/C=N/O)n1,nt,-0.6,-3,-29,0.2,-6,-0.4,-8
CCc1noc(C)c1C(=O)Nc1nc2c(F)cc(F)cc2s1,1.1,-14,nt,nt,nt,12,-4.2,5
COc1cc(C=O)c(-c2c(C=O)cc(OC)c3c2OCO3)c2c1OCO2,2.9,-0.6,8,-11,0.1,-8,0.2,24
CC(=O)N1CCc2cc(S(=O)(=O)CCC(=O)Nc3c(C)n(C)n(-c4ccccc4)c3=O)ccc21,0.9,-0.4,-4,-8,0.1,-3,-1.8,-7
O=C(N/N=C/c1ccc2c(c1)OCO2)C(O)c1ccccc1 (stereo unspecified),nt,-2.2,-6,-37,3.1,-8,1.4,1
CC(C)c1ccc(/C=N\NC(=O)c2ccc(Cn3cccn3)o2)cc1,nt,-0.3,5,8,-2.2,7,6.4,16
Cc1ccc2nc3ccc(N4CCCCCCC4)nn3c(=O)c2c1,-1.4,0.7,-5,21,?,-9,-1.3,-8
CCN(CC)C(=O)/C(=C\c1ccc(Br)cc1)NC(=O)c1ccccc1OC,3.1,1.2,21,10,0.3,4,-0.9,-11
CC(=NC1CCN(Cc2ccccc2)CC1)c1c(O)[nH]c(=O)[nH]c1=O,4.0,0.3,?,-4,3.1,-17,-2.6,-2
CN(C)C(=O)/C(=C/c1cn(-c2ccccc2)nc1-c1cccc([N+](=O)[O-])c1)NC(=O)c1ccccc1,-0.4,0.3,-2,20,3.6,6,-3.9,-20
O=C(NCc1cccs1)c1cccc(S(=O)(=O)N2CCCCC2)c1,3.7,1.3,-4,-9,-2.5,-4,0.3,5
Cc1c(C(=O)NC(C)C2CC3CCC2C3)cccc1[N+](=O)[O-] (stereo unspecified),2.5,-0.5,-2,-5,2.5,-12,-1.8,-11
COc1ccc(N/N=C(/C(N)=O)C2=NC(C)(C)Cc3ccccc32)cc1,nt,-0.3,2,16,3.2,0,-0.6,1
Cn1c(SCC(=O)c2ccccc2F)nnc1C1CC1,7.3,1.8,7,-15,3.4,2,2.2,-3
Nn1c(SCC(=O)Nc2ccc3c(c2)OCO3)nnc1C(F)(F)F,-0.4,-0.4,7,10,0.9,8,1.5,-5
COc1cc(CNc2ncnc3c2[nH]c2ccc(C)cc23)cc(OC)c1,-23,-0.3,4,26,-5.3,8,-3.1,17
CCC1=NC(c2ccc(OC)cc2OC)N(O)C1(C)C (stereo unspecified),5.3,-1.3,5,-13,6.4,-2,3.1,-4
COc1ccc(OC)c(NC(=O)Nc2nnc(N3CCC(C)CC3)s2)c1,3.5,0.1,-2,6,-0.6,-5,-0.1,5
NC(=O)c1cc(-c2ccncc2)nc2ccc(Cl)cc12,0.1,0.7,5,0,-4.2,-6,-1.0,12
Cc1c(NC(=O)c2cccc(NS(C)(=O)=O)c2)c(=O)n(-c2ccccc2)n1C,-3.4,1.1,3,-3,6.9,-1,-5.6,25
COc1ccc(Nc2nc3c(c(=O)n(C)c(=O)n3C)n2CCO)cc1,0.5,0.7,-4,1,13,-2,-2.6,6
CCn1cc(/C=N/NC(=O)c2cc3c(ccc4ccccc43)o2)c2ccccc21,nt,-0.6,2,9,5.9,0,-2.3,12
Cc1ccc(S(=O)(=O)NC(C)(C)CN2CCC(Cc3ccccc3)CC2)cc1,3.6,nt,-64,25,1.7,nt,nt,50*
COc1ccccc1C1CCN(c2ccc([N+](=O)[O-])c(OC)c2)CC1,6.6,-0.3,4,10,0.5,5,-0.2,21
Cc1csc(SCC(=O)Nc2cc(S(=O)(=O)N3CCOCC3)ccc2N2CCOCC2)n1,1.7,-0.1,1,6,1.5,-2,3.1,-3
COc1ccccc1N/C=C(\C#N)c1nc2ccccc2[nH]1,nt,-0.1,-6,-12,5.7,2,-6.8,13
CCC(=O)N1c2ccc(S(=O)(=O)N3CCCCC3)cc2CC1C (stereo unspecified),4.2,0.8,3,-8,?,-5,3.8,-4
Cc1ccc2ncnc(Nc3ccccc3)c2c1,-5.8,-0.3,20,3,1.2,13,-1.6,7
COc1ccc(N(CC(=O)N2CCc3ccccc3C2)S(=O)(=O)c2ccccc2)cc1,0.6,1.7,2,8,-0.6,-6,0.1,3
CCc1cc2c(=O)n(N)c(CCC(=O)O)nc2s1,nt,0.2,0,-4,3.8,-6,3.4,0
CC1CCCN(CCCNC(=O)C2CCN(S(=O)(=O)N3CCC4(CC3)OCCO4)CC2)C1 (stereo unspecified),2.1,-0.3,1,10,-2.3,0,0.9,1
COc1ccc(-n2c(C)nc3c(cnn3-c3ccccc3)c2=O)cc1,3.5,0.2,19,-2,-2.5,-8,4.5,0
Cc1ccc(S(=O)(=O)N(CCC#N)C2CCCCC2)c2nsnc12,3.5,-0.4,-13,-8,-2.7,1,7.8,-4
CS(=O)(=O)c1ccccc1-c1nnc(NC(=O)c2ccco2)o1,3.5,-0.4,2,2,3.9,-8,nt,7
CN=C1c2c(-c3ccccc3)c3cc(OC)ccc3n2CCN1C,0.7,0.2,-20,nt,-3.0,-4,-5.3,5
COc1cccc(NC(=O)CSc2nc(=O)n(CCN(C)C)c3c2CCCC3)c1,2.3,0.5,-4,11,-11,-8,1.7,-8

# Next records follow.
SMILES,UCH37 DUB inh,A1 inh,Calb FLC,T cruzi repl,RanGTP-Impb inh,Beta apoptosis,LANA-H2A inh,B2AR ag
CNC(=S)N1CCN(C(=O)c2ccco2)CC1,2.0,0.9,11,-10,4.6,2,nt,-8
COc1ccc(CNC(=O)CN(C(=O)c2csnn2)c2cnc3ccccc3c2)cc1,-0.7,-0.1,1,-1,-0.3,5,-3.0,-10
CC(=O)N1CN(Cc2ccccn2)Cc2c1sc1c2CCCC1,0.6,0.4,nt,8,1.8,-5,-1.5,-3
Cc1ccc(NC(=O)CCC(=O)c2cccs2)cc1F,1.4,1.3,1,-6,1.9,3,-3.8,4
CCc1ccc(OCC(=O)c2c(O)c3ccccc3oc2=O)cc1,-1.3,0.3,1,-9,2.2,-1,2.0,-12
COc1ccc(-n2ncc3c(NCc4cccnc4)ncnc32)cc1,2.5,-1.4,-1,-8,-0.7,-9,0.8,9
O=C1CN(C(=O)COC(=O)c2c(F)cccc2Cl)c2ccccc2N1,1.7,0.0,nt,nt,nt,2,3.4,-8
O=[N+]([O-])c1ccccc1OCc1nc(-c2cccs2)no1,2.4,-3.9,26,-15,-0.8,nt,-1.5,-4
Cc1c(O)nc2sc3ccccc3n2c1=O,4.1,-0.5,5,-5,-1.6,-6,0.2,nt
CCn1c(CNC(=O)Cc2ccc(OC)cc2)n[nH]c1=S,0.8,-0.1,10,-6,?,-10,-3.6,-1
O=C1/C(=C/c2ccco2)SC(=S)N1C1CCS(=O)(=O)C1 (stereo unspecified),3.2,1.6,79,21,?,-20,4.5,-6
Cc1nnc(NC(=O)c2ccc(Br)o2)s1,4.6,-0.6,22,-7,-2.1,-8,-1.9,2
Cc1c(C(=O)NCc2ccccn2)oc2c(Cl)cccc12,0.4,-0.4,nt,nt,nt,-3,-3.3,0
CN1C(=O)C(=O)/C(=C(/O)c2ccc(Br)cc2)C1c1ccc(Cl)cc1 (stereo unspecified),7.5,-0.2,4,-12,3.2,-6,-2.5,9
O=C(NCc1ccco1)C(=O)NCC1OCCCN1S(=O)(=O)c1ccccc1 (stereo unspecified),-0.1,0.4,2,-9,-4.0,-8,2.3,2
